Vaccinia mCherry: vaccinia inhibition (mCherry reporter); Vaccinia virus mCherry reporter infection, fluorescence; about a quarter of the inactives have no number; Potency, µM (titrated, usually from 36.5 µM), inactives show at the highest dose activity change, negative = inhibition, actives largely listed as inhibitors; hit rate 0.63% among 310,000; AID 720579; active = well fitted inhibition curve with a large enough effect; inconclusive = small, poorly fitted or top-dose-only effect; inactive = no such curve, though single readings can be large or run the other way; tested in A549 cells; further: nearly all actives have a fitted effect of over 35% in size; inactives centre near -10
Vaccinia Venus: inhibitors of vaccinia virus (Venus reporter); Vaccinia virus Venus reporter expression, fluorescence; Potency, µM (top dose mostly 36.5 µM), for the others: at the top dose activity change, negative = inhibition, actives largely listed as inhibitors; hit rate 0.46% among 330,000; active means well fitted inhibition curve with a large enough effect; inconclusive means small, poorly fitted or top-dose-only effect; inactive means no such curve, though single readings can be large or run the other way; tested in A549 cells; further: nearly all actives have a fitted effect of over 30% in size; inactives centre near -10
* hit, by the source's call; i = inactive; ? = inconclusive; · = no result given; & = joins results of further samples; [ ] = another dose, or the depositor's remark. On the % scale 0 is the no-effect control and ±100 the full control effect; potency means the concentration at half of the fitted maximal effect.

Below each compound – Vaccinia Venus	Vaccinia mCherry
> COc1cc(OC)cc(C(=O)N[C@H](C(=O)OCC(=O)Nc2ccc3c(c2)OCO3)C(C)C)c1
→ -3.3%	-20.0%
> CC(NC(=O)CSc1nc2ccccc2n1CCC#N)c1ccc(F)cc1 (centres undefined)
→ -7.8%	-17.9%
> COc1ccc(S(=O)(=O)N2CCCc3ccccc32)cc1OC
→ -13.6%	-20.9%
> O=c1cccc(-c2ccc3ccccc3c2)o1
→ -24.5%	?
> Cc1ccc2nc(SCC(=O)Nc3ccc4c(c3)OCCO4)[nH]c2c1
→ -13.7%	-12.8%
> COc1cc(/C=N/NC(=O)CNC(=O)/C=C/c2ccco2)cc(OC)c1OC
→ -1.7%	-6.8%
> Cc1n[nH]c(=O)c2c(NC(=O)CSc3nn(-c4ccc(F)cc4)c(=S)s3)oc(C)c12
→ -4.2%	-6.9%
> COc1ccccc1CCC(=O)Nc1nc2ccccc2[nH]1
→ ?	?
> Cn1c(COc2ccccc2)nnc1SCCC(=O)Nc1ccccc1
→ -25.2%	·
> Cc1c(NS(=O)(=O)c2cccc(C(=O)OCC(=O)c3ccc(Cl)cc3)c2)c(=O)n(-c2ccccc2)n1C
→ -11.1%	-0.7%
> O=C(Nc1nnc([C@H]2C[C@H](O)[C@@H](CO)O2)s1)NC(c1ccccc1)c1ccccc1
→ -2.5%	16.4%
> Cc1ccc(NS(=O)(=O)c2ccc(/C=C/C(=O)O)cc2)cc1Cl
→ -8.2%	2.5%
> O=C(COC(=O)c1ccc([N+](=O)[O-])o1)Nc1nc2ccccc2s1
→ -20.5%	-19.0%
> Cc1cc(/C=N/NC(=O)C(=O)NCc2ccccn2)c(C)n1-c1ccccc1
→ -17.8%	?
> COc1ccc(CCN2Cc3c(N)cccc3C2=O)cc1OC
→ -7.4%	-9.5%
> O=C(Nc1ccc2c(c1)CCCN2C(=O)c1cccs1)c1cccc(F)c1
→ -23.1%	-3.5%
> CCCc1cc(=O)[nH]c(SCC(=O)Nc2sc3c(c2C(N)=O)CCCC3)n1
→ 1.5%	-14.4%
> C[S+](C)CC(=O)c1ccc2ccccc2c1
→ -5.8%	-10.7%
> S=c1[nH]nc(-c2ccccn2)n1/N=C/c1cccs1
→ 2.8%	-8.9%
> Cc1ccc(CNC(=O)c2ccc(N3CCC4(CC3)CC(c3ccccc3)=NO4)c(N)c2)cc1
→ ?	?
> COc1ccc(S(=O)(=O)N(C)C[C@H]2Oc3c(NC(=O)Nc4c(C)noc4C)cccc3C(=O)N([C@H](C)CO)C[C@@H]2C)cc1
→ -10.6%	-15.3%
> NC(=S)N/N=C/c1ccc(-c2ccc(SC(F)F)cc2)o1
→ ?	?
> O=C(c1ccc(S(=O)(=O)Nc2ccccc2)cc1)N1CCOCC1
→ -14.6%	·
> Cc1cccc2cc(CN(CCCN(C)C)C(=S)NCCc3ccccc3)c(=O)[nH]c12
→ -6.3%	-1.4%
> Cc1cc(NS(=O)(=O)c2ccc(NC(=O)CSc3nnc(-c4ccco4)n3N)cc2)nc(C)n1
→ 1.8%	-4.8%
> COC(=O)c1sc(NC(=O)c2cc(-c3ccccc3)nc3ccccc23)c(C#N)c1C
→ ?	15.8µM*
> CCOC(=O)CC1c2cc(OCC)c(OCC)cc2CCN1C(=O)Nc1cccc(Cl)c1 (centres undefined)
→ -6.1%	-9.1%
> C[N+](C)(C)c1ccc(/C=C2\C=Cc3ccccc32)cc1
→ -18.3%	9.3%
> COc1ccc(NC(=O)NNS(=O)(=O)c2ccc(OC)c(OC)c2)c(OC)c1
→ -21.9%	i
> CCC(=O)OC1CCC2C3CCc4cc(O)ccc4C3CC[C@]12C (some centres undefined)
→ ?	-9.9%
> CCOC(=O)C1(Cc2cccc(Cl)c2)CCCN(C(=O)c2cc(C)n(C)n2)C1 (centres undefined)
→ -6.0%	i
> Cc1ccc(S(=O)(=O)N2CCCCC2)cc1C(=O)NCCCN1CCOCC1
→ -9.4%	-4.0%
> COc1cc(NC(=O)c2nn(-c3ccc(C)cc3)c(=O)c3c2c2ccccc2n3C)cc(OC)c1OC
→ -2.8%	-2.5%
> CC(=O)C1=C(C)NC(C)=C(C(C)=O)C1c1ccc(-c2ccccc2Cl)o1
→ -21.3%	·
> O=C(O)CCC(=O)N(Cc1ccco1)C1CC(=O)N(c2ccccc2)C1=O (centres undefined)
→ -2.2%	-3.9%
> CCOC(=O)c1ccc(NC(=O)c2c(C)nn(-c3ccc(F)cc3)c2-n2cccc2)cc1
→ -15.3%	-15.1%
> CC1=NN2C(=N)/C(=C\c3cc(C)n(Cc4ccccc4)c3C)C(=O)N=C2S1
→ -4.3%	i
> CCCn1nnnc1NCc1ccccc1OCc1ccc(F)cc1
→ -10.8%	i
> Cc1ccc(COc2ccc(-c3cc(C(F)(F)F)n4nc(C)cc4n3)cc2)cc1
→ -9.3%	-0.7%
> O=C(O)[C@H]1NC[C@H]2C[C@H]21
→ -13.1%	i
> CC1=C(C(=O)Nc2ccccc2)C(c2ccccc2[N+](=O)[O-])NC(=O)N1 (centres undefined)
→ -13.5%	i
> O=C(O)c1cc(NC(=O)c2ccccc2[N+](=O)[O-])ccc1O
→ -15.4%	-10.6%
> CCC[C@@H]1CCCC/C=C\CCCC(=O)OCCN1C(=O)OC(C)(C)C
→ ?	-8.7%
> CN1CCCC(C#CC(O)(c2ccccc2)c2ccccc2)C1 (centres undefined)
→ -8.3%	i
> CCc1ccccc1NC(=O)CSc1ncc2c(n1)-c1ccccc1N(C)S2(=O)=O
→ 2.1%	-4.9%
> COc1ccc(C#Cc2cnc3c(c2)C(=O)N([C@H](C)CO)C[C@@H](C)[C@H](CN(C)C(=O)CN(C)C)O3)cc1
→ -12.2%	i
> Cc1ccc2c(c1)C(c1ccccc1)N(C(=O)Cc1ccc(F)cc1)CC(=O)N2 (centres undefined)
→ -11.2%	-17.6%
> CC(C)NS(=O)(=O)c1ccc(OCC(=O)Nc2ccc(F)cc2F)cc1
→ -7.6%	-13.1%
> COc1cccc(C(=O)NCCC2=CCCCC2)c1OC
→ -13.3%	-18.6%
> CCN(CC)C(=O)CC(c1cc(OC)c(OC)c(OC)c1)c1c(OC)cc(OC)c2ccc(=O)oc12 (centres undefined)
→ -3.9%	20.7%
> Cn1c(=O)oc2cc(S(=O)(=O)Nc3ccccc3F)ccc21
→ 1.9%	-11.8%
> Cc1cccc(NC(=O)Nc2ccc(C#N)cc2)n1
→ ?	?
> CCc1ccc(NC(=O)N2CCN(Cc3nc4ccc(C)cc4o3)CC2)cc1
→ -9.3%	-10.7%
> CS/C(N)=N/N=C/c1ccc([N+](=O)[O-])cc1
→ -15.0%	-23.5%
> O=C(Nc1cccc(C(F)(F)F)c1)c1cc2c(s1)-c1ccccc1OC2
→ 4.4%	-2.5%
> CN1CCN(C(=O)c2ccc(-c3cnn(C)c3)c3ccoc23)CC1
→ -1.4%	8.7%
> CCCCN(CCCC)CC(O)COc1ccccc1C(=O)Nc1ccccc1 (centres undefined)
→ -26.4%	-10.2%
> CC(C)C(=O)NC(c1cccc([N+](=O)[O-])c1)c1ccc2cccnc2c1O (centres undefined)
→ 4.47µM*	?
> COC(=O)CCSCC(=O)N1N=C(c2ccc(OC)cc2)CC1c1cccc(OC)c1OC (centres undefined)
→ -4.7%	-14.6%
> COC(=O)C(C(=O)OC)c1ccccc1CNS(=O)(=O)c1ccc(C)cc1
→ -16.8%	-20.1%

Arranged by number of heavy atoms (low to high): 3 of the compounds above
Below each compound – Vaccinia Venus	Vaccinia mCherry
> CCCn1nnnc1NCc1ccccc1OCc1ccc(F)cc1
→ -10.8%	i
> Cc1ccc(S(=O)(=O)N2CCCCC2)cc1C(=O)NCCCN1CCOCC1
→ -9.4%	-4.0%
> COC(=O)CCSCC(=O)N1N=C(c2ccc(OC)cc2)CC1c1cccc(OC)c1OC (centres undefined)
→ -4.7%	-14.6%

Among those listed so far, these contain a CF3 group.
Below each compound – Vaccinia Venus	Vaccinia mCherry
> Cc1ccc(COc2ccc(-c3cc(C(F)(F)F)n4nc(C)cc4n3)cc2)cc1
→ -9.3%	-0.7%
> O=C(Nc1cccc(C(F)(F)F)c1)c1cc2c(s1)-c1ccccc1OC2
→ 4.4%	-2.5%

The results go on:
Below each compound – Vaccinia Venus	Vaccinia mCherry
> CC12CCC(C(=O)Nc3ccc(Br)cn3)(OC1=O)C2(C)C (centres undefined)
→ -5.7%[7.34 µM]	i[7.34 µM]
> COc1ccc(OC)c(C(O)c2ncc(-c3ccccc3OC)[nH]2)c1 (centres undefined)
→ -2.6%	i
> COc1ccc(-c2coc3cc4oc(=O)cc(-c5ccccc5)c4cc23)cc1F
→ -23.7%	?
> Cc1ccc(O)c(N=Nc2ccc(S(=O)(=O)N3CCOCC3)cc2)c1
→ -12.8%	-12.9%
> Cn1c(=O)n(Cc2ccccc2Cl)c(=O)c2c1[nH]c(=S)n2C
→ -11.9%	i
> COc1ccccc1NC(=O)c1c([N+](=O)[O-])c(C(C)(C)C)nn1C
→ -3.0%	i
> CCOc1ccc(NC(=O)CC2C(=O)Nc3ccccc3N2C(=O)c2ccccc2)cc1 (centres undefined)
→ -8.3%	-4.0%
> Cc1ccc(C(=O)n2c(N)nc3ccccc32)cc1
→ ?	-3.6%
> O=C(NCC1CCCCC1)c1ccc2nc([C@H]3C[C@H](O)[C@@H](CO)O3)[nH]c2c1
→ 9.5%	9.5%
> COc1ccc(-c2ccc(NC(=O)c3ccco3)cc2)nn1
→ 2.0%	-16.4%
> O=C1N(c2ccccc2)C2CS(=O)(=O)CC2N1c1ccc(Cl)c(Cl)c1 (centres undefined)
→ -19.0%	-5.4%
> Cn1cc(CNC(=O)Nc2ccc3c(c2)OCO3)cn1
→ -11.7%	-11.8%
> CS(=O)(=O)c1ccc(Cl)c(NC(=O)COC(=O)COc2ccc3c(c2)CCC3)c1
→ -8.4%	-17.1%
> COc1ccc(/C(C)=N/Nc2ccc(C(=O)O)cc2)c(OC)c1
→ -11.9%	-13.5%
> OCCNc1nc(OCC(F)(F)F)nc(N2CCN(C34CC5CC(CC(C5)C3)C4)CC2)n1
→ -12.4%	-11.9%
> CN1CCn2cnc(C(=O)NCCCCCNC(=O)OC(C)(C)C)c2C1=O
→ -4.8%	-22.5%
> Cc1ccc(Oc2nnc(-c3ccccc3)c3ccccc23)cc1
→ ?	-18.3%
> O=C(NCCS(=O)(=O)c1ccc(Cl)cc1)c1ccc(F)cc1
→ -7.3%	i
> O=C(Cc1ccccc1)N1CCN(C(=O)c2cccs2)CC1
→ -8.5%	·
> CC[C@@]1(C(=O)OC)N[C@H](CN(C)C(=O)c2ccc(C)cc2)[C@@H]2C(=O)N(Cc3ccccc3)C(=O)[C@@H]21
→ 2.4%	-15.2%
> c1ccc(NCCCNc2ccccc2)cc1
→ -15.4%	·
> Cc1n[nH]c(C)c1S(=O)(=O)N1CCCC(C(=O)NC2CCCCC2)C1 (centres undefined)
→ -6.4%	14.5%
> COc1ccc(C2C(C(=O)N3CCC(C(N)=O)CC3)CC(=O)N2c2ccc(OC)cc2)cc1 (centres undefined)
→ -11.7%	i
> O=C(Nc1ccc2c(c1)C(=O)NC2=O)c1cccc(C(F)(F)F)c1
→ -1.8%	-13.6%
> COc1cccc(NC(=O)CCc2nc3c(C)nn(-c4ccc(C)cc4)c3n(C)c2=O)c1
→ -16.1%	-19.2%
> COc1ccc(C(=O)Nc2c(N)nc(SCC(=O)N3CCC(C)CC3)[nH]c2=O)cc1OC
→ -19.0%	i
> NCc1csc(NC(=O)Nc2cccc(C(F)(F)F)c2)n1
→ -2.0%	25.3%
> CC1CCc2cc(F)cc3c2N1C(=O)C(C(=O)Nc1cnccn1)C3=O (centres undefined)
→ -16.4%	-23.1%
> CCN(CC)c1cc(C)c2cc(NC(=O)c3ccccc3OC)ccc2n1
→ ?	-18.5%&-29.8%
> Cc1cc(-c2nnc(SCC(=O)c3ccc4c(c3)OCCO4)o2)no1
→ 5.1%	-13.6%
> CCn1c(C)nc2cc(C(=O)N/N=C/c3ccc(O)cc3)ccc21
→ -16.2%	-12.2%
> CC(=O)c1ccc(NC(=O)Nc2ccc3c(c2)nc(C)n3C)cc1
→ -3.7%	-3.3%
> O=[N+]([O-])c1ccc(/C=N/n2c(CO)nc3ccccc32)s1
→ 3.98µM*	5.01µM*
> O=C(Nc1ccc(F)cc1)c1cc2cc3ccc(Cl)cc3nc2o1
→ -16.9%	-16.4%
> CNc1ncnc2c1ncn2[C@H]1CN(CCc2ccccc2)C[C@@H](CO)O1
→ -8.8%	-5.0%
> CCOc1ccccc1C=Nc1ccccc1C(=O)Nc1ccccc1
→ -14.2%	-21.7%
> CCCN(CCC)CCNC(=O)CCC(=O)Nc1ccc2nc(N3CCOCC3)cc(C)c2c1
→ -5.5%	i
> C/C(=N\NC(=O)c1c(Cl)c(C)nn1C)c1ccc(NC(=O)c2ccncc2)cc1
→ -14.6%	-12.7%
> CC(C)CNc1c2c(nc3ccccc13)CCC2
→ ?	-28.5%
> COc1ccc(N2C(=O)C3C4C=CC(CC4)C3C2=O)c([N+](=O)[O-])c1 (centres undefined)
→ -4.1%	-10.8%
> CCOC(=O)c1sc2ncn(/N=C/N(C)C)c(=O)c2c1C
→ -2.9%	-13.6%
> CCOC(=O)N/N=C/c1cccc(Cl)c1Cl
→ -27.5%	-8.7%
> CC(=O)Nc1ccc(Nc2nc(-c3cc4ccccc4oc3=O)cs2)cc1
→ ?	-20.2%
> CC1CN(C(=O)N2CCC(C(=O)NCc3ccco3)CC2)c2cc(Cl)ccc2O1 (centres undefined)
→ -9.5%	-14.6%
